RN4220 kill: growth inhibition of S. aureus RN4220, primary screen, OD600 | 16 h | AID 1259311, 2017 | 330,000 compounds, 0.33% hits | inhibition, % (no concentration beside the values);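 active = z-score of -3 or lower and OD600 up to 0.18 on both plates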;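 also: plate controls were untreated cells for no effect and reference antibiotic for full effect; stock transfer was 100 nL into about 80 µL; one replicate is shown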
PrP 5UTR inh: inhibition of PrP 5' UTR reporter expression; cell-based PrP 5' UTR mRNA reporter, plate reader; inhibition, % (concentration not given with the values); 340,000 compounds, 0.35% hits; AID 488862, 2010;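 active = every replicate at 50% or more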;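 also: 0 = median of the neutral control wells; tested in H4 reporter cells; numbers are from one replicate; inactives centre near -14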
Sa ugtP lethal: growth inhibition of ugtP-null S. aureus, primary screen, RN4220 ugtP deletion, OD600. 330,000 compounds, 0.54% hits. 16 h; some inactives read as strong as hits. growth inhibition, % (test concentration not listed);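 active = z-score under -3 and OD600 up to 0.15 on both plates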;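 also: plate controls were untreated wells for no effect and antibiotic for full effect; wells of about 80 µL received 100 nL stock; the first replicate is given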
BJeLR viability: MLPCN primary cell-based screen for lethality selective to Ras in HRASV12 cells; BJeLR (HRASV12) viability, CellTiter-Glo ATP luminescence, 48 h; reference of the scale not given here; inhibition, % (no concentration beside the values); 300,000 compounds, 0.17% hits; AID 1554, 2009;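 active = replicate mean above 50%; inconclusive = above 50% but judged a plate artefact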;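 also: 50 nL library stock added to about 25 µL; numbers are from one replicate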
Mtb hypoxia rep: PubChem AID 1159583; M. tuberculosis hypoxia-regulated fluorescent reporter, fluorescence; fluorescence inhibition, % (test concentration not listed); 300,000 compounds, 0.1% hits;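 active = 35 to 45% if threefold the growth effect, above 45% if 1.5-fold the growth effect; inactive = the rest, general growth blockers included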;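 also: wells of about 50 µL received 100 nL stock; 0% = vehicle wells and 100% = reference inhibitor wells; whole bacteria with a GFP reporter of the hypoxia response; strong numbers were not always called active; many hits fall short of the cut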
Bead autofluor: compound fluorescence in toxin protease inhibitor counterscreen; compound autofluorescence counterscreen, microsphere flow cytometry; stronger effect = higher value; 360,000 compounds, 3.1% hits; fluorescence intensity (concentration not given with the values);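 active = at least 3 SD above the mean of all compounds, about 16000 in these data; inconclusive = too few beads counted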;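 also: 100 nL of 1 mM stock went into each well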
Mtb hypoxia rep growth: further read-out of Mtb hypoxia rep, marked with its call; growth inhibition, %; measured here: M. tuberculosis growth (absorbance);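 0% = vehicle and 100% = reference antibiotic; read after six days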
* = called active by the depositor; u = inconclusive; x = not tested or not shown.

SMILES | RN4220 kill | PrP 5UTR inh | Sa ugtP lethal | BJeLR viability | Mtb hypoxia rep | Mtb hypoxia rep growth | Bead autofluor
O=C(CCNC(=O)c1ccc([N+](=O)[O-])cc1)Nc1nccs1 | 1.7 | -4 | 10 | 4 | -3 | -3 | 4375
O=C(Nc1ccc(Br)cc1Cl)Nn1cnnc1 | 2.4 | 2 | 1 | -5 | 9 | -7 | 9245
Cc1ccc(-c2nnn(CC(=O)N(c3ccccc3F)C(C(=O)NCC3CCCO3)c3c[nH]c4ccccc34)n2)cc1 (stereo not given) | 1.8 | -1 | -2 | 4 | -2 | 4 | 16194*
C/C(=N\NC(=O)c1ccc(Cl)c(Cl)c1)c1cccc(NC(=O)C(C)C)c1 | x | -13 | x | -27 | x | x | 4518
COCCNC(=O)C(c1ccc(C)cc1)N(Cc1ccccc1)C(=O)CCC(=O)Nc1ccccn1 (stereo not given) | 6.5 | -18 | 5 | -1 | -14 | 2 | 4447
CCn1cc(/C=C(\NC(=O)c2ccc(C)cc2)C(=O)NCCCN2CCOCC2)c2ccccc21 | 0.2 | -14 | 0 | -5 | -6 | 0 | 5149
CC1(C)OC(=O)N(NCc2ccccc2)C1(C)O (stereo not given) | -0.3 | 10 | -2 | -4 | -8 | 5 | 3778
O=C(O)c1cc(Cl)c(Cl)cc1C(=O)Nc1cccc2ncccc12 | x | -6 | x | -7 | x | x | 2231
CC(=NS(=O)(=O)c1ccc(C)cc1)N1CCCCC1 | 3.6 | x | 2 | x | 0 | -5 | x
O=C(COC(=O)COc1cccc(C(F)(F)F)c1)NC(=O)NC1CCCCC1 | 0.4 | -18 | 10 | -11 | 7 | 2 | x
Cn1cccc1C(=O)NCc1ccc(S(N)(=O)=O)cc1 | 2.6 | -20 | -1 | 0 | 11 | -7 | 3796
Clc1cccc(Cl)c1CSc1nnc(-c2ccncc2)s1 | 9.8 | -30 | 9 | 4 | x | x | 5620
COc1ccc(CCNC(=O)CCS(=O)(=O)c2ccc3nc(C)sc3c2)cc1OC | 0.6 | -12 | 3 | -6 | -4 | 1 | 6200
CS(=O)(=O)N(CC(=O)N1CCCCCC1)c1cccc(Cl)c1Cl | 5.7 | -24 | 1 | -3 | 0 | -2 | 4032
COc1ccc(CNC(=O)c2cc(-c3ccncc3)nc3c(C)cc(C)cc23)cc1OC | 4.2 | -7 | 0 | 6 | -9 | -4 | 4096
COc1ccc(COC(=O)CN2C(=O)NC3(CCCC3)C2=O)cc1F | 2.2 | -6 | 3 | -8 | -13 | -1 | u
O=C(OCC(=O)N(Cc1ccccc1)Cc1ccccc1)c1cccc(O)c1 | 6.8 | -6 | 11 | x | 7 | 4 | 3720
Nc1nc(C2CCCN2S(=O)(=O)c2ccc(Cl)cc2)cs1 (stereo not given) | -1.2 | -5 | 2 | -14 | x | x | 2605
CC(C)c1ccc(C(CC(=O)c2ccc(Cl)cc2)C(=O)O)cc1 (stereo not given) | 11 | -29 | 3 | 0 | 6 | 1 | 4217
O=C(NCCc1c[nH]c2ccccc12)c1cc([N+](=O)[O-])cc([N+](=O)[O-])c1 | 12 | -20 | 4 | 9 | x | x | 3723
Cc1sc2nc(-c3ccccn3)[nH]c(=O)c2c1-c1ccccc1 | 31 | -16 | 4 | x | 9 | 13 | 4649
Cc1cc(NC(=O)c2cc(-c3ccc4c(c3)OCO4)on2)n(-c2ccccc2)n1 | 1.5 | -2 | -3 | -14 | 2 | 0 | 8590
Cc1cc(C(F)(F)F)nc(-n2cc(-c3cccc(N)c3)nn2)n1 | 6.4 | -25 | 4 | -1 | 4 | 1 | 4312
CCN(CC(=O)Nc1ccc2c(c1)OCCO2)C(=O)c1ccc(Cl)cc1Cl | 1.9 | -76 | 0 | 6 | -2 | 0 | u
COc1ccc(CN2CCC(C(=O)N3CCCC(C)C3)CC2)cc1OC (stereo not given) | 3.4 | -17 | 15 | -2 | 17 | 6 | 2532
CCCN(CCC)S(=O)(=O)c1ccc(C(=O)N2CCOCC2)cc1 | 3.3 | -26 | 2 | 9 | 5 | 5 | 9416
CN(C)c1ccc(C#Cc2ccc3cc(CCCO)oc(=O)c3c2)cc1 | -4.8 | -35 | -19 | x | 14 | 8 | 4450
COc1ccccc1CCNC(=O)Cn1ccc2cc(S(=O)(=O)N3CCCC3)ccc21 | 1.6 | 3 | -2 | -7 | 4 | -9 | 4290
Clc1ccc(C2Nc3cccc4cccc(c34)N2)cc1 | 3.1 | -17 | -12 | -13 | -6 | 9 | 3604
COc1ccc(OC)c(S(=O)(=O)NCC(=O)NC2CCCCCC2)c1 | 0.2 | -42 | 7 | x | 4 | 7 | 7798
Cc1nn(CC(=O)O)c(=O)c2ccccc12 | 4.4 | -31 | 6 | -4 | 11 | 5 | u
CCc1ccc(/C(C)=N\Nc2ccc([N+](=O)[O-])cc2)cc1 | x | -45 | x | -4 | x | x | 7432
CCN(CC(=O)Nc1c(Cl)cccc1Cl)C(=O)C1CCN(c2ncnc3sc(C)c(C)c23)CC1 | 5.0 | -20 | 3 | x | 5 | 1 | u
CN(c1ccccc1)S(=O)(=O)c1cccc(C(=O)Nc2nccs2)c1 | 5.4 | -14 | 5 | -5 | 7 | -11 | 3526
Cc1cccn2c(=O)c3cc(C#N)c(=N)n(Cc4ccncc4)c3nc12 | -1.2 | x | 3 | 9 | -9 | 1 | x
CC(=O)Oc1ccc(C(=O)Nc2ccc3c(c2)C(=O)N(CCC(=O)O)C3=O)cc1 | 3.3 | -44 | -4 | x | 11 | 9 | 11384
Cc1ccccc1OCCn1c(S(=O)(=O)O)nc2c(N)ncnc21 | 4.7 | -12 | 6 | -4 | 14 | 2 | 3554
CC(C)C(OC(=O)c1ccccc1)c1nccc2ccccc12 (stereo not given) | 0.7 | -63 | 20 | 4 | -3 | -5 | 4497
CCCc1cc(=O)oc2c(C)c(OCC(=O)NC3CCN(Cc4ccccc4)CC3)ccc12 | x | -13 | x | 0 | x | x | 4506
Cc1[nH]n(-c2ccccc2)c(=O)c1/C=N/N1C(=O)c2ccc3c4c(ccc(c24)C1=O)CC3 | x | -33 | x | -2 | x | x | 2099
COCCCn1c(=O)c2ccccc2n(Cc2cccc(C)c2)c1=O | 4.4 | -41 | 4 | -7 | 20 | 11 | 3301
COc1ccc(C2SCC(C(=O)O)N2C(C)=O)cc1OC (stereo not given) | 5.7 | -12 | -2 | 10 | x | x | 5921
Cn1cnnc1SCC(=O)Nc1ccccc1Sc1ccccc1 | -4.4 | -27 | -1 | -4 | 6 | 8 | 2397
Cc1cccn2c(=O)c(/C=C3\SC(=S)NC3=O)c(NCCCN3CCOCC3)nc12 | 4.7 | -9 | 5 | 2 | 1 | -12 | 3656
CCOc1ccc(/C=C2\SC(=S)N(CCC(=O)O)C2=O)cc1 | 9.5 | 68* | 4 | 14 | 2 | -6 | 4367
O=C(Nc1sc2c(c1C(=O)O)CCCCC2)c1ccccc1F | 16 | -20 | -13 | 6 | -1 | 4 | 2702
Cc1ccc(C(c2sc3nc(C)nn3c2O)N2CCOCC2)cc1 (stereo not given) | 5.9 | -2 | 2 | 3 | x | x | 4443
CC12CCC(=O)N1C(C(=O)NNC(=O)c1ccccc1F)CS2 (stereo not given) | 2.7 | 2 | 0 | x | -4 | 5 | 5129
CC(C)(C)c1ccc(/C=C/C(=O)NCCCn2ccnc2)cc1 | 3.1 | -12 | 10 | -1 | 17 | 8 | 3123
O=C(CCCN1C(=O)/C(=C/c2cccs2)SC1=S)Nc1ccc(O)cc1 | 2.2 | -32 | -9 | -6 | 9 | 6 | 5943
O=C(COC(=O)c1ccccc1C(=O)c1ccc(Cl)c([N+](=O)[O-])c1)NC1CC1 | 5.9 | -18 | 6 | 36 | -7 | 1 | 4576
Cc1ccc2[nH]c(=O)c(C(c3nnnn3CC3CCCO3)N3CCc4ccccc4C3)cc2c1 (stereo not given) | 2.1 | -14 | 1 | -4 | -3 | -3 | 9471
Cc1c(Cl)c([N+](=O)[O-])nn1CC(=O)Nc1c(C)n(C)n(-c2ccccc2)c1=O | -2.4 | -1 | -1 | 7 | x | x | 2820
C=CCn1c(C)nnc1SCC(=O)Nc1nccs1 | 0.0 | -31 | 3 | -12 | 5 | -9 | 6709
COc1ccc(CSCC(=O)NN=Cc2ccccc2O)cc1 | 7.0 | x | -10 | x | -5 | 19 | x
Cc1cc(OC(=O)CNC(=O)OC(C)(C)C)c2c(C)cc(=O)oc2c1 | -0.4 | -11 | 2 | -2 | 9 | 9 | 5962
O=c1[nH]c(-c2ccccc2)nnc1-c1ccccc1 | 6.3 | x | 6 | 12 | -16 | 3 | 4388
Brc1ccc(C2CN3CCSC3=N2)cc1 (stereo not given) | 8.6 | x | 10 | x | 2 | 11 | x
O=[N+]([O-])c1cccc(-c2nnc3n2CCCCC3)c1 | -0.3 | -4 | 10 | 2 | 3 | -6 | 3505
CCCc1n(CC(O)COCc2ccccc2)c2ccccc2[n+]1C (stereo not given) | 4.6 | -31 | 4 | -1 | -1 | -2 | 3488

(cont.)
SMILES | RN4220 kill | PrP 5UTR inh | Sa ugtP lethal | BJeLR viability | Mtb hypoxia rep | Mtb hypoxia rep growth | Bead autofluor
Cc1ccsc1-c1nc(C(N)=O)c2[nH]c(=O)n(-c3ccc(Cl)cc3)c2n1 | x | -27 | x | 11 | x | x | 5914
O=C(Cn1cncn1)c1ccccc1Br | 5.7 | -10 | -2 | -15 | 7 | 8 | 3816
CCOC(=O)c1ccc(NC(=O)C2CCN(C(=O)c3ccc(OC)c(OC)c3)CC2)cc1 | -0.8 | -1 | 0 | 4 | 7 | 5 | 2513
NC(=O)CSc1nnc(Cn2c(=O)sc3ccccc32)n1-c1ccccc1 | 1.2 | -20 | 3 | -13 | x | x | 5641
CC(C)c1ccc(/C=N/n2c(-c3ccccc3)n[nH]c2=S)cc1 | x | -11 | x | 1 | x | x | 3360
O=C(O)c1cccc(Nc2c([N+](=O)[O-])c(=O)oc3ccccc23)c1 | 1.8 | -9 | -1 | 9 | 5 | -1 | 3751
COc1ccc(-c2cc(C#N)nc(N3CCN(C)CC3)n2)cc1 | 5.1 | -12 | -13 | -6 | 9 | 14 | 2581
Cc1ccc(C2CC(=O)NC(SCC(=O)Nc3nccs3)=C2C#N)cc1 (stereo not given) | 6.6 | -12 | 3 | 3 | x | x | 2650
Cc1cccc(C)c1NC(=O)c1cccn(Cc2ccc3c(c2)OC(F)(F)O3)c1=O | -0.3 | -13 | -26 | -3 | 11 | 8 | 16867*

Rewritten with two lines to a compound: entries from further up
Fields: RN4220 kill	PrP 5UTR inh	Sa ugtP lethal	BJeLR viability	Mtb hypoxia rep	Mtb hypoxia rep growth	Bead autofluor
Brc1ccc(C2CN3CCSC3=N2)cc1 (stereo not given)
    8.6	x	10	x	2	11	x
O=[N+]([O-])c1cccc(-c2nnc3n2CCCCC3)c1
    -0.3	-4	10	2	3	-6	3505
CCCc1n(CC(O)COCc2ccccc2)c2ccccc2[n+]1C (stereo not given)
    4.6	-31	4	-1	-1	-2	3488
Cc1ccsc1-c1nc(C(N)=O)c2[nH]c(=O)n(-c3ccc(Cl)cc3)c2n1
    x	-27	x	11	x	x	5914
O=C(Cn1cncn1)c1ccccc1Br
    5.7	-10	-2	-15	7	8	3816
CCOC(=O)c1ccc(NC(=O)C2CCN(C(=O)c3ccc(OC)c(OC)c3)CC2)cc1
    -0.8	-1	0	4	7	5	2513
NC(=O)CSc1nnc(Cn2c(=O)sc3ccccc32)n1-c1ccccc1
    1.2	-20	3	-13	x	x	5641
CC(C)c1ccc(/C=N/n2c(-c3ccccc3)n[nH]c2=S)cc1
    x	-11	x	1	x	x	3360
O=C(O)c1cccc(Nc2c([N+](=O)[O-])c(=O)oc3ccccc23)c1
    1.8	-9	-1	9	5	-1	3751
COc1ccc(-c2cc(C#N)nc(N3CCN(C)CC3)n2)cc1
    5.1	-12	-13	-6	9	14	2581
Cc1ccc(C2CC(=O)NC(SCC(=O)Nc3nccs3)=C2C#N)cc1 (stereo not given)
    6.6	-12	3	3	x	x	2650
Cc1cccc(C)c1NC(=O)c1cccn(Cc2ccc3c(c2)OC(F)(F)O3)c1=O
    -0.3	-13	-26	-3	11	8	16867*
